Cruzain noTriton – inhibitors of Trypanosoma cruzi cruzain without detergent. purified cruzain, Z-FR-AMC fluorescence, no detergent. Potency, µM, inactives show max response, negative = inhibition, hits mostly inhibitors. AID 1476. 200,000 compounds, 2.3% hits. P25779;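 also: plate controls were enzyme without inhibitor for no effect and buffer without enzyme for full effect; nearly all actives have a fitted effect of over 40% in size; top concentration of the series not given in the record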
Target sequence (P25779 123-467 limits assumed): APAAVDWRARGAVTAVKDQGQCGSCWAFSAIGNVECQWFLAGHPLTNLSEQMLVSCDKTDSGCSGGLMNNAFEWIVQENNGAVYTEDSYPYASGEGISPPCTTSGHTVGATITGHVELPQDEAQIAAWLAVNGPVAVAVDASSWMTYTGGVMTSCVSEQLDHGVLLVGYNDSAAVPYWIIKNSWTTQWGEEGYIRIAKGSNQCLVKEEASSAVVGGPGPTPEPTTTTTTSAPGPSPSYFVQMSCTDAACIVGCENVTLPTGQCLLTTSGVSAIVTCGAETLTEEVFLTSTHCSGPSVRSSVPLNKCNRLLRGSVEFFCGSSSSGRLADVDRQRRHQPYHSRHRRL
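Purified cruzain at 1.5 nM, pre-incubated 15 min with compound at room temperature in 100 mM sodium acetate pH 5.5, 5 mM DTT, 0.00005% Triton X-100. Reaction started with 2 uM Z-FR-AMC; AMC fluorescence increase over 60 s gives rate.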
NS1 function inh – inhibitors of influenza NS1 protein function; AID 2326; 270,000 compounds, 0.4% hits; S. cerevisiae slowed by influenza A NS1, growth recovery by OD600; Potency, µM (top dose mostly 46.1 µM), without a hit: at the highest dose activity, positive = more growth; active means well fitted rising curve with a large enough effect; inconclusive means small, poorly fitted or top-dose-only effect; inactive means no such curve, though single readings can be large or run the other way; also: nearly all actives have a fitted effect of over 50% in size
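OD600 was taken as the measure of yeast growth restored by compound in an NS1-expressing S. cerevisiae strain. Cells had been washed out of glucose medium and diluted 1:100 into galactose -URA medium, pH 6.0.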
2A StopGo – FMDV 2A StopGo reporter, luciferase signal | human cells with a luciferase reporter of 2A StopGo recoding; control for the full effect not named in the record | Potency, µM (titrated, usually from 57.9 µM), inactives show at the highest dose signal change, negative = less light | 410,000 compounds, 1.2% hits; active = well fitted falling curve with a large enough effect; inconclusive = small, poorly fitted or top-dose-only effect; inactive = no such curve, though single readings can be large or run the other way; tested in HEK293T cells; also: % is scaled to controls: 0 for no effect and ±100 for the full control effect; nearly all actives have a fitted effect of over 45% in size; luciferase light after 4 h
Lassa entry inh – inhibitors of Lassa virus binding or cell entry | Lassa virus pseudotype entry inhibition, cell reporter; control for the full effect not named in the record | Potency, µM (doses to about 37.9 µM), inactives show at the highest dose activity change, negative = inhibition, hits mostly inhibitors | 300,000 compounds, 1.2% hits; active means well fitted inhibition curve with a large enough effect; inconclusive means small, poorly fitted or top-dose-only effect, or effect the other way; inactive means flat fitted curve, though single readings scatter; tested in HEK293 cells; also: % is scaled to controls: 0 for no effect and ±100 for the full control effect; nearly all actives have a fitted effect of over 50% in size; luciferase read-out
RE007 growth inh – less growth of the S. pombe RE007 Vpr strain; S. pombe RE007 Vpr strain, BacTiter-Glo ATP luminescence, 24 h; control for the full effect not named in the record; AID 651644; Potency, µM (highest dose often 92.2 µM), without a hit: at the highest dose activity change, negative = less growth; 360,000 compounds, 0.21% hits; active = well fitted falling curve with a large enough effect; inconclusive = small, poorly fitted or top-dose-only effect; inactive = no such curve, though single readings can be large or run the other way;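 also: % is scaled to controls: 0 for no effect and ±100 for the full control effect; nearly all actives have a fitted effect of over 50% in size; the assay follows cell death caused by Vpr and the record does not say whether a fall means rescue or toxicity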
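Fission yeast strain RE007, carrying one chromosomally integrated HIV-1 vpr copy, was seeded at OD 0.01 in PMG+AL medium with 23 nL pinned compound. After 24 h at 30 °C and 99% humidity, viability was read by BacTiter-Glo luminescence.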
Cruzain inh Det – inhibitors of Trypanosoma cruzi cruzain with detergent; purified cruzain, Z-FR-AMC fluorescence, 0.01% Triton; Potency, µM, for the others: max response, negative = inhibition, usual class: inhibitors; 200,000 compounds, 0.43% hits;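 also: plate controls were neutral wells for no effect and buffer without enzyme for full effect; nearly all actives have a fitted effect of over 40% in size; top concentration of the series not given in the record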
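Purified cruzain (1.5 nM final) was preincubated with compounds for 15 min at room temperature in 100 mM sodium acetate pH 5.5, 5 mM DTT, 0.01% Triton X-100. Reaction started with 2 uM Z-FR-AMC; AMC fluorescence change over 60 s gave activity.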
SARS PLpro yeast – inhibitors of SARS-CoV papain-like protease in yeast | S. cerevisiae expressing SARS-CoV PLpro, growth rescue; control for the full effect not named in the record | 330,000 compounds, 0.19% hits | Potency, µM (series often up to 32.9 µM), inactives show at the top dose activity, positive = growth rescue; active means well fitted rising curve with a large enough effect; inconclusive means small, poorly fitted or top-dose-only effect; inactive means no such curve, though single readings can be large or run the other way; also: 0% is about no effect; nearly all actives have a fitted effect of over 55% in size; growth read by luminescence after 48 h
Marburg entry inh – inhibitors of Marburg virus binding or cell entry; 300,000 compounds, 1.8% hits; Marburg virus pseudotyped entry inhibition, cell reporter; control for the full effect not named in the record; about a third of the inactives were read at about 46 µM; Potency, µM (top dose mostly 37.8 µM), without a hit: at the highest dose activity change, negative = inhibition, most hits filed as inhibitors; active = well fitted inhibition curve with a large enough effect; inconclusive = small, poorly fitted or top-dose-only effect, or effect the other way; inactive = flat fitted curve, though single readings scatter; tested in HEK293 cells; about a fifth of its hits are not listed in these tables; also: % is scaled to controls: 0 for no effect and ±100 for the full control effect; luciferase read-out
Active calls of the source: *; [ ] = dose if it differs, or a comment. Unless noted, calls follow the shape of the dose curve; as a rule, active = well fitted curve in the direction sought with a large enough effect; inconclusive = small, poorly fitted or top-dose-only effect, or another doubt; inactive = no such curve, though single readings can be large; an effect the other way counts as inactive or inconclusive. Potency is read from the fitted curve at half-maximal effect. An unsorted share of the library, and some 4.7% of all compounds hit somewhere here.

For COc1ccc(Cl)cc1N(CC(=O)Nc1ccc2c(c1)OCO2)S(C)(=O)=O the results were Cruzain noTriton -1%, NS1 function inh -4%, 2A StopGo 29%, Lassa entry inh 9%, RE007 growth inh -17%, Cruzain inh Det -3.0%, SARS PLpro yeast -2% and Marburg entry inh inconclusive.
`CCOC(CNc1ncnc2sc(-c3ccccc3)cc12)OCC` gave NS1 function inh -6%, 2A StopGo -22%, RE007 growth inh -5% and SARS PLpro yeast 0%.
`Cc1cn(C)c(CC(=O)NCc2ccccc2)c1C(=O)O` gave Cruzain noTriton -3%, 2A StopGo -13%, Lassa entry inh 10%[46.1 µM] and Cruzain inh Det 1.6%.
Cc1cc2c(c(=O)n1CCc1ccccc1)C(c1ccco1)C(C#N)=C(N)O2 (stereo unspecified) was read as Cruzain noTriton -16%, NS1 function inh 3%, 2A StopGo inconclusive, Lassa entry inh -11%, RE007 growth inh 5%, Cruzain inh Det 0.3%, SARS PLpro yeast -3% and Marburg entry inh 12%.
For Cc1cc(C)c(S(=O)(=O)c2c(C)cccc2C)c(Cl)n1 the results were Cruzain noTriton -7%, NS1 function inh -8%, 2A StopGo -14%, Lassa entry inh -18%, RE007 growth inh 11%, Cruzain inh Det 3.0%, SARS PLpro yeast -4% and Marburg entry inh -16%.
O=C(O)c1ccc2cccnc2n1 was read as 2A StopGo -9%, Lassa entry inh -1%, RE007 growth inh 9%, SARS PLpro yeast -1% and Marburg entry inh inconclusive.
Screening CCOc1ccc(Nc2nc(C)cc(C)c2C#N)cc1 returned Cruzain noTriton -3%, NS1 function inh -5%, Lassa entry inh -2%, RE007 growth inh 4%, Cruzain inh Det 1.2%, SARS PLpro yeast 4% and Marburg entry inh 2%.
CC(NS(=O)(=O)OCC(Cl)(Cl)Cl)c1ccccc1 (stereo unspecified) was read as NS1 function inh -44%, 2A StopGo -13%, RE007 growth inh 5% and SARS PLpro yeast -1%.
For Cc1cc(Sc2ncnc(N)c2[N+](=O)[O-])ncn1 the results were NS1 function inh 2%, 2A StopGo 20µM*, Lassa entry inh 11µM*, RE007 growth inh -16%, SARS PLpro yeast -2% and Marburg entry inh inconclusive.
COc1ccc(Cl)cc1NC(=O)Cn1c(=O)oc2cc(S(=O)(=O)N3CCCCCC3)ccc21 was read as Cruzain noTriton -5%, 2A StopGo -14%, Lassa entry inh -5%[46.1 µM] and Cruzain inh Det -1.6%.
`Cc1ccccc1NC(=O)C(=O)N/N=C/c1cccc(Br)c1` gave Cruzain noTriton 6%, NS1 function inh 3%, 2A StopGo 1%, Lassa entry inh -7%, RE007 growth inh 9%, Cruzain inh Det -2.9%, SARS PLpro yeast 19% and Marburg entry inh inconclusive.
For COc1ccc(CCNC(=O)Cn2c(=O)c3cccn3c3cccnc32)c(OC)c1OC the results were NS1 function inh 4%, 2A StopGo -23%, RE007 growth inh 2% and SARS PLpro yeast 0%.
Screening COc1ccc(NC(C)=O)cc1NC(=O)CSc1nnc(-c2cccnc2)n1C returned Cruzain noTriton 9%, NS1 function inh 14%, 2A StopGo 12%, Lassa entry inh 13%, RE007 growth inh -1%, Cruzain inh Det -0.1%, SARS PLpro yeast 8% and Marburg entry inh 3%.
For Cc1ccc(N)c(C(=O)c2ccccc2)c1 the results were Cruzain noTriton -2%, NS1 function inh -2%, Lassa entry inh inconclusive, RE007 growth inh 13%, Cruzain inh Det -2.1%, SARS PLpro yeast 6% and Marburg entry inh 7%.
COc1ccccc1CC1(C)NC(=O)N(CC(=O)Nc2cc(C)on2)C1=O (stereo unspecified) was read as Cruzain noTriton 15%, NS1 function inh -9%, 2A StopGo -10%, Lassa entry inh -4%, RE007 growth inh 1%, Cruzain inh Det 4.0%, SARS PLpro yeast -6% and Marburg entry inh 24%.
Screening O=C(Nc1c(C(=O)N2CCC(N3CCCCC3)CC2)oc2ccccc12)c1ccc(F)cc1 returned NS1 function inh 15%, 2A StopGo 24%, RE007 growth inh 14% and SARS PLpro yeast 8%.
O=S(=O)(c1cccc2cccnc12)N1CCN(c2ccccn2)CC1 was read as NS1 function inh 2%, 2A StopGo -19%, Lassa entry inh 0%, RE007 growth inh -4%, SARS PLpro yeast 2% and Marburg entry inh 6%[46.1 µM].
Screening O=C(CSc1cccc(C(F)(F)F)c1)N1CCN(S(=O)(=O)c2ccccc2)CC1 returned Cruzain noTriton 13%, NS1 function inh -6%, Lassa entry inh -17%, RE007 growth inh 11%, Cruzain inh Det -4.4%, SARS PLpro yeast -7% and Marburg entry inh -21%.
Screening CC(C)(C)c1ccc(OCC(=O)NC2CCS(=O)(=O)C2)cc1 (stereo unspecified) returned Cruzain noTriton 3%, NS1 function inh -5%, 2A StopGo -12%, Lassa entry inh -9%, RE007 growth inh 2%, Cruzain inh Det 3.5%, SARS PLpro yeast 2% and Marburg entry inh 0%.
COc1ccc(CNC(=O)COC(=O)c2ccco2)cc1 was read as NS1 function inh 4%, 2A StopGo -2%, Lassa entry inh 15%, RE007 growth inh 3%, SARS PLpro yeast 0% and Marburg entry inh 19%[46.1 µM].
For COc1ccc(OC2CCN(S(=O)(=O)c3ccc(OC)c(OC)c3)CC2)cc1 the results were NS1 function inh -1%, 2A StopGo inconclusive, RE007 growth inh 0% and SARS PLpro yeast -4%.
Screening COc1ccc(CN2CCNC(=O)C2CC(=O)NCC(C)(C)N2CCOCC2)cc1C (stereo unspecified) returned NS1 function inh 15%, 2A StopGo 13%, Lassa entry inh 1%[46.1 µM], RE007 growth inh 6%, SARS PLpro yeast 1% and Marburg entry inh -15%[46.1 µM].
COc1ccc2c(c1)C=C(C(=O)NCc1ccc(Cl)cc1)CO2 was read as Cruzain noTriton -4%, NS1 function inh -35%, 2A StopGo -17%, Lassa entry inh -8%, RE007 growth inh inconclusive, Cruzain inh Det -3.5%, SARS PLpro yeast -29% and Marburg entry inh -18%.
`COc1cc(-c2noc(-c3ccc(N(C)C)c([N+](=O)[O-])c3)n2)cc(OC)c1OC` gave Cruzain noTriton 25µM*, 2A StopGo -29%, Lassa entry inh 2%[46.1 µM], Cruzain inh Det -6.7% and Marburg entry inh -12%[46.1 µM].
Screening CCn1c(O)c(/C=N/N=C2CCCCC2)c2cc(C3=NNC(=O)CC3)ccc21 returned NS1 function inh inconclusive, 2A StopGo -15%, Lassa entry inh -16%, RE007 growth inh -10%, SARS PLpro yeast 0% and Marburg entry inh 0%[46.1 µM].
`CCOCCCNCC(=O)N1CCN(S(=O)(=O)c2ccc(C)cc2)CC1` gave Cruzain noTriton -8%, NS1 function inh -4%, 2A StopGo 0%, Lassa entry inh 6%, RE007 growth inh 6%, Cruzain inh Det 0.8%, SARS PLpro yeast 7% and Marburg entry inh 16%.
Screening CCCc1cc(=O)[nH]c(SCC(=O)N(CC)C2CCS(=O)(=O)C2)n1 (stereo unspecified) returned Cruzain noTriton 2%, NS1 function inh 13%, 2A StopGo -2%, Lassa entry inh -4%, RE007 growth inh 29%, Cruzain inh Det 0.2%, SARS PLpro yeast 4% and Marburg entry inh 1%.
`Cc1ccccc1NC(=O)c1ccc(Cl)c(S(=O)(=O)N2CCCCCC2)c1` gave Cruzain noTriton 1%, 2A StopGo -13%, Lassa entry inh inconclusive and Cruzain inh Det 5.0%.
`COc1ccc(/C=C/C(=O)Nc2ccccc2C(=O)NCC(c2ccc(OC)cc2)N(C)C)cc1` (stereo unspecified) gave NS1 function inh -21%, 2A StopGo 3%, Lassa entry inh inconclusive, RE007 growth inh -7%, SARS PLpro yeast 0% and Marburg entry inh inconclusive.
NS(=O)(=O)c1cccc(NC(=O)CNC(=O)CC23CC4CC(CC(C4)C2)C3)c1 was read as NS1 function inh -4%, 2A StopGo -16%, Lassa entry inh 13%, RE007 growth inh 3%, SARS PLpro yeast 1% and Marburg entry inh 18%.
For COc1cc(CCC(=O)Nc2nnc(C)s2)cc(OC)c1OC the results were NS1 function inh -4%, 2A StopGo 3%, Lassa entry inh inconclusive, RE007 growth inh 5%, SARS PLpro yeast 3% and Marburg entry inh inconclusive.
For CCOC(=O)C1CCN(C(c2cccc(F)c2)c2sc3nc(C)nn3c2O)CC1 (stereo unspecified) the results were Cruzain noTriton inconclusive, NS1 function inh -36%, 2A StopGo -20%, RE007 growth inh 1%, Cruzain inh Det -1.0% and SARS PLpro yeast 12%.
For Cc1nc2ccccc2n1C1CC(=O)N(N(C)C)C1=O (stereo unspecified) the results were Cruzain noTriton 0%, NS1 function inh 3%, 2A StopGo -15%, Lassa entry inh 22%, RE007 growth inh -6%, Cruzain inh Det 3.7%, SARS PLpro yeast 5% and Marburg entry inh 15%.
`CC(=O)N1CCOc2ccc(S(=O)(=O)N3CCC(C(=O)Nc4ccc(C)c(C)c4)CC3)cc21` gave NS1 function inh 9%, 2A StopGo -22%, Lassa entry inh 5%[46.1 µM], RE007 growth inh 0%, SARS PLpro yeast -4% and Marburg entry inh 19%[46.1 µM].
Screening Cc1ccc(C)c(Nc2ncnc3c2cnn3-c2ccc(F)cc2)c1 returned Cruzain noTriton 6%, 2A StopGo 19%, Lassa entry inh -14%[46.1 µM] and Cruzain inh Det -2.9%.
`COC(=O)c1cc(NC(=O)C(C)c2ccc(CC(C)C)cc2)ccc1O` (stereo unspecified) gave NS1 function inh 2%, 2A StopGo -5%, Lassa entry inh inconclusive, RE007 growth inh -5%, SARS PLpro yeast 0% and Marburg entry inh inconclusive.

Grouped by structure: the entries above with a cyano group.
Cc1cc2c(c(=O)n1CCc1ccccc1)C(c1ccco1)C(C#N)=C(N)O2 (stereo unspecified) was read as Cruzain noTriton -16%, NS1 function inh 3%, 2A StopGo inconclusive, Lassa entry inh -11%, RE007 growth inh 5%, Cruzain inh Det 0.3%, SARS PLpro yeast -3% and Marburg entry inh 12%.
Screening CCOc1ccc(Nc2nc(C)cc(C)c2C#N)cc1 returned Cruzain noTriton -3%, NS1 function inh -5%, Lassa entry inh -2%, RE007 growth inh 4%, Cruzain inh Det 1.2%, SARS PLpro yeast 4% and Marburg entry inh 2%.
